Screens as filed in PubChem BioAssay.
A488 fluor = compound fluoresces in the A488 spectral region; hit rate 0.1% among 59,000; max dye equivalency, M; compound autofluorescence, A488 spectral region, dye equivalency; active compounds read high; AID 591; active = above 10 nM dye equivalent; inconclusive = 1 to 10 nM; inactive = 1 nM or less; about half of its hits are not listed in these tables;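 note: highest value over a series up to 38 µM; compound alone in buffer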
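Intrinsic compound fluorescence is measured in 100 mM Tris buffer at pH 8.0 following 15 min incubation at room temperature. Intensities at 480 nm excitation/540 nm emission are calibrated to an on-plate A488 concentration series, giving dye-equivalent concentrations.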
AID923 = qHTS Assay for Allosteric/Competitive Inhibitors of Caspase-1: Spectroscopic Profiling in AFC Spectral Region; hit rate 1.1% among 75,000; AID 923, 2007; compound fluorescence, AFC spectral region (405/520 nm); almost no hit is shown here; Potency, µM (doses to about 57.5 µM), without a hit: top-dose fluorescence increase, usual class: activators; active = well fitted activation curve with a large enough effect; inconclusive = small, poorly fitted or top-dose-only effect;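 note: potency is the fitted concentration of half-maximal effect; 0% is about no effect; scaled to a free AFC standard on each plate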
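Titrations up to 57 uM read every 20 sec for 3 min (405/520 nm) with 50 nM caspase 1 and 5 uM Ac-WEHD-AFC, pH 7.5 HEPES buffer. Fluorescence-vs-time intercept gave baseline, scaled against on-plate AFC standard.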
Resorufin autofl = resorufin region autofluorescence; max dye-equivalent concentration, M; Compound fluorescence, resorufin region 547/598 nm, buffer; active compounds read high; hit rate 0.04% among 59,000; active = above 10 nM dye equivalent; inconclusive = 1 to 10 nM; inactive = 1 nM or less; a few of its hits are not listed in these tables; note: highest value over a series up to 38 µM
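Dye-equivalent concentration values derive from comparing each well's 547/598 nm fluorescence against resorufin standards included on every plate. Incubation was 15 min at room temperature in 100 mM Tris, pH 8.0.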
A647 fluor = compound autofluorescence in A647 spectral region | Compound fluorescence, A647 channel (570/671 nm), Tris buffer | max dye-equivalent concentration, M | AID 592 | 59,000 tested, under 10 active; active means above 1 µM dye equivalent; inconclusive means 0.1 to 1 µM; inactive means 0.1 µM or less;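 note: values scaled relative to a standard on each plate; highest value over a series up to 38 µM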
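Fluorescence read (570 nm ex, 671 nm em) after 15 min RT incubation of compounds in 100 mM Tris buffer, pH 8.0; values expressed as dye-equivalent concentration against a six-point A647 standard series on each plate.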
TSHR agonist = agonists of human thyroid stimulating hormone receptor | P16473 | HEK293-CNG-TSHR cells (CNG channel as cAMP sensor), membrane potential dye, cAMP | AID 926 | hit rate 0.48% among 73,000 | Potency, µM (series often up to 57.1 µM), for the others: at the top dose activation, usual class: activators; active = well fitted activation curve of enough size with the parental cells flat; inconclusive = any curve in the parental cells; inactive = parental cells flat and receptor cells flat or falling; note: potency is the fitted concentration of half-maximal effect; % of control where 0% means no effect; weak receptor curves with flat parental cells got no call and are not listed
Target sequence (P16473 whole entry, looked up): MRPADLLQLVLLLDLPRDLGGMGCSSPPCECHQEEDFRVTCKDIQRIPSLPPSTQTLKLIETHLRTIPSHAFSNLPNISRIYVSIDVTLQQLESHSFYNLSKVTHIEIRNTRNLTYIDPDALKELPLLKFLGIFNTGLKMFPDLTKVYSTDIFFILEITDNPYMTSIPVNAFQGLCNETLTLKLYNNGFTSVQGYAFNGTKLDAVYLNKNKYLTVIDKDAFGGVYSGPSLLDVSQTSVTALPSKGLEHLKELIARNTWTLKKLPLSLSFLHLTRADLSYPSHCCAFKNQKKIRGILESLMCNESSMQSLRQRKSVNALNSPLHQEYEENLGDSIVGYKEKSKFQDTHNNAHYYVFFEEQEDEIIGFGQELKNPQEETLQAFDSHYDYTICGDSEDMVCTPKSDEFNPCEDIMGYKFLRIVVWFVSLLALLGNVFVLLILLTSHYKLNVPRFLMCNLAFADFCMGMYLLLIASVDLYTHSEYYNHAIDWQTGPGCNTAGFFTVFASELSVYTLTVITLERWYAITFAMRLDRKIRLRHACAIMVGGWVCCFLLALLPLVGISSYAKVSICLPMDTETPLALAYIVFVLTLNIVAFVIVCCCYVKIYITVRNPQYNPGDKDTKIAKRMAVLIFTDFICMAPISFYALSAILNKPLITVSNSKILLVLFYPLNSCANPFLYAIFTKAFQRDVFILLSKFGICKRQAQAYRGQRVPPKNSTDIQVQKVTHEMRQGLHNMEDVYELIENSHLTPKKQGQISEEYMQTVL
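HEK 293 cells stably expressing TSHR and a modified CNG channel, with CNG-only parental cells as counterscreen, were preloaded 60 min at room temperature with membrane potential dye containing 100 uM RO 20-1724. Compound exposure was 30 min, and depolarization was read as fluorescence at 590 nm.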
Starred values were filed as active, the others as inactive; i = inactive; u = inconclusive; x = no result given; & = joins results of further samples; [ ] = remark or other dose.

canonical_smiles | TSHR agonist | A647 fluor | Resorufin autofl | A488 fluor | AID923
O=C(C1CCN(S(=O)(=O)c2cccc3nsnc23)CC1)N1CC=C(c2ccccc2)CC1 | 2% | 1e-09 | i | i | 2.0%
CCOc1cccc(NC(=O)C2CCCN(S(=O)(=O)c3ccc(OC)cc3)C2)c1 (stereo not given) | -2% | 3.8e-09 | i | i | -1.4%
Cc1oc(C(=O)Nc2ccc(O)cc2)cc1COc1ccccc1 | -7% | 1e-09 | i | i | 1.7%
O=C1c2cccnc2C(=O)N1Cc1cccs1 | u | x | x | x | 1.7%
O=C(O)[C@H]1CCCC[C@@H]1c1c2ccc(=O)c(O)c-2oc2c(O)c(O)ccc12 | u | 5.8e-08 | i | i | -4.2%[11.5 µM]
O=C(Cc1n[nH]c(=O)c2ccccc12)NCc1ccccn1 | 0% | 4.5e-08 | i | i | -1.2%
CCOC(=O)C1=C(N)Oc2c(oc(CO)cc2=O)C1c1c(F)cccc1Cl (stereo not given) | u | 1e-09 | i | i | -2.7%
Cc1cc2c(nc1C)CCCCN2C[C@H](O)CN1CCCc2nc(-c3ccc(Br)cc3)ccc21 | -8%[11.4 µM] | x | x | x | 1.6%[11.5 µM]
c1ccc(-c2c3ccccc3nc3[nH]c4ccccc4c23)cc1 | u | x | x | x | 2.9%
O=c1nc(N(c2ccccc2)c2ccccc2)[nH]c(=O)[nH]1 | 1% | 2.9e-08 | i | i | 1.2%
CC(=O)NC(CCS(C)(=O)=O)C(=O)N1CCc2ccccc21 (stereo not given) | 13% | 1e-09 | i | i | -0.6%
CCN1CCCC1CNC(=O)c1ccc(-n2c(=O)c(=O)[nH]c3ccccc32)cc1 (stereo not given) | u | x | x | x | 1.0%
COc1ccc(N2CCN(C(=O)CN(c3ccccc3)S(C)(=O)=O)CC2)cc1 | 3% | 1e-09 | i | i | 0.1%
CC(NCCO)C(=O)C12CC3CC(CC(C3)C1)C2 (stereo not given) | 5% | 8.5e-09 | i | i | 4.4%
COc1cccc(C(=O)Nc2ccc(NC(=O)C(C)C)nc2)c1 | -12% | 1.8e-08 | i | i | -3.1%
CCCCc1cc(=O)oc2c(CN(C)C)c(O)c(Cl)cc12 | x | 2.1e-09 | i | i | x
COC(=O)[C@@]1(Cc2ccc(OC)cc2)[C@H]2c3cc(C(=O)N(C)C)n(Cc4ccc(O)c(OC)c4)c3C[C@H]2CN1C(=O)c1ccccc1 | u | x | x | x | -0.9%
COCCNC(=O)c1ccccc1NC(=O)c1ccc(OC)c(OC)c1 | 9% | 1e-09 | i | i | 2.4%
CCOc1cc(S(=O)(=O)NCc2ccccn2)c(C)cc1C | 43% | 1.6e-08 | i | i | -2.7%
CC(C)CCNC(=O)CN(C)S(=O)(=O)c1cccc2nsnc12 | u | 5.9e-09 | i | i | 0.9%
COCC(=O)N1CCC[C@@]2(CCN(Cc3nccs3)C2)C1 | -1% | 5.8e-09 | i | i | 2.5%
O=C(CN1CCC(n2nnc3ccccc32)CC1)NCc1cccs1 | 4% | 3.5e-08 | i | i | -0.6%
Fc1cccc2sc(N3CCOCC3)nc12 | 8% | 4.5e-08 | i | i | -0.9%
COc1ccc(S(=O)(=O)NCCOc2ccccc2)cc1OC | 5% | 1e-09 | i | i | -1.3%
Cc1c(C(=O)NCc2ccc3c(c2)OCO3)oc2ccc(S(=O)(=O)N3CCCCC3)cc12 | 11% | 1.5e-08 | i | i | -2.6%

One compound at a time, as listed above. Screens in order: TSHR agonist	A647 fluor	Resorufin autofl	A488 fluor	AID923
COc1cccc(C(=O)Nc2ccc(NC(=O)C(C)C)nc2)c1 is entered as -12%	1.8e-08	i	i	-3.1%
c1ccc(-c2c3ccccc3nc3[nH]c4ccccc4c23)cc1 is entered as u	x	x	x	2.9%
COCCNC(=O)c1ccccc1NC(=O)c1ccc(OC)c(OC)c1 is entered as 9%	1e-09	i	i	2.4%
Cc1oc(C(=O)Nc2ccc(O)cc2)cc1COc1ccccc1 is entered as -7%	1e-09	i	i	1.7%
CCN1CCCC1CNC(=O)c1ccc(-n2c(=O)c(=O)[nH]c3ccccc32)cc1 (stereo not given) is entered as u	x	x	x	1.0%

Further entries.
canonical_smiles | TSHR agonist | A647 fluor | Resorufin autofl | A488 fluor | AID923
CN(C)S(=O)(=O)N1CCC(Cc2ccccc2)CC1 | 5%[11.4 µM] | x | x | x | -0.6%
CN(C)/C=N/c1nc2ccc3c(c2s1)CCCC3 | 7% | 1.5e-08 | i | i | 0.0%
N#CCCN1CCN(S(=O)(=O)c2ccc(S(=O)(=O)NCC3CCCO3)cc2)CC1 (stereo not given) | -8% | x | x | x | -2.5%
Cc1[nH]c2ccccc2c1C(=O)CSc1ncn[nH]1 | -5% | 1.7e-08 | i | i | -1.4%
CCc1nc2ccccc2n1Cc1ccccc1OC | u | 1e-09 | i | i | 0.6%
CN(C)CCCN1c2ccccc2Sc2ccc(Cl)cc21 | -17%[25.6 µM] | 1e-09&5.7e-09&3.2e-08 | i | i | -1.1%
O=C(Nc1ccc2c3c(cccc13)CC2)c1ccco1 | u | 7.9e-09 | i | i | 1.7%
CN(C)S(=O)(=O)c1ccc(N2CCOCC2)nc1 | 3% | 1e-09 | i | i | -1.2%
CC(=O)N1CCc2cc(S(=O)(=O)NC(C(=O)NCc3ccccc3)C(C)C)ccc21 (stereo not given) | 12% | 1.1e-09 | i | i | -0.3%
Cc1ccc(-c2nc3cnccn3c2Nc2ccc3c(c2)OCCO3)o1 | -24% | 1.9e-08 | i | i | 0.8%
C=CCn1c(SCC(=O)c2ccc(CNC(C)=O)o2)nc2scc(C3CC3)c2c1=O | x | 9.2e-09 | i | i | 2.4%
c1ccc2c(CN3CCN(Cc4c[nH]c5ccccc45)CC3)c[nH]c2c1 | 0%[11.4 µM] | 1e-09 | i | i | 1.9%[11.5 µM]
COc1ccccc1Cn1c(=O)[nH]c2cccnc21 | 2% | 7.3e-09 | i | i | 0.7%
O=C(NCc1ccc2c(c1)OCO2)C(c1ccco1)N(C(=O)c1csnn1)c1ccccc1 (stereo not given) | 3.2µM* | 1e-09 | i | i | 0.3%
Cc1ccccc1OCCNC(=O)CNC(=O)c1ccccc1O | -3% | 1.9e-08 | i | i | -2.9%
CS(=O)(=O)N1CCc2cc(C(=O)OCC(=O)c3ccccc3)ccc21 | x | 6.9e-09 | i | i | -1.0%
N#Cc1c(C(F)(F)F)cc(-c2ccccc2)nc1SCc1nc(N)nc(N2CCOCC2)n1 | 14%[11.4 µM] | 1e-09 | i | i | 12%
N#CCCN1CCN(CCC#N)CC1 | -2% | 1.2e-08 | i | i | 0.4%
COc1ccccc1CN1CCC2(CC1)CCN(C(C)=O)CC2 | u | 2.6e-09 | i | i | 3.5%
NC(=O)CCn1nc(-c2ccccc2)c2ccccc2c1=O | -8% | 3.9e-08 | i | i | -1.5%
COCCNc1nc(=S)[nH]c2cc(OC)c(OC)cc12 | 5% | 1e-09 | i | i | 1.7%
O=C(c1cnn2c(C(F)(F)F)cc(-c3ccco3)nc12)N1CCCc2ccccc21 | u | x | x | x | -1.6%
CCCCOC(=O)C1=C(C)Nc2ncnn2C1c1cc(OC)c(OC)cc1OC (stereo not given) | -2% | 4.8e-09 | i | i | 0.1%
COc1ccc(CNC(=O)[C@H]2C[C@@H]2[C@H](NP(=O)(c2ccccc2)c2ccccc2)c2ccccc2)cc1OC | u | x | x | x | -1.7%
O=C1CC(N2CCN(c3ccccc3Cl)CC2)C(=O)N1c1ccccc1 (stereo not given) | -3% | 1.1e-08 | i | i | -0.4%
Cc1nc2ccccc2n1-c1nc(-c2ccco2)cc(C(F)(F)F)n1 | u | 9.5e-09 | i | i | -1.0%
CCOc1cccc(-c2nnc(SCC(=O)Nc3cccc(OC)c3)n2N)c1 | 12% | 1e-09 | i | i | 0.2%
COc1ccc2nc(NC(=O)c3ccoc3C)sc2c1 | -5% | 3.7e-08 | i | i | -1.4%
O=C(NCC1CCCO1)c1ccc2c(c1)C(=O)N(C1CCCCC1)C2=O (stereo not given) | -5% | x | x | x | 0.6%
Nc1nc2c(nc(Br)n2[C@@H]2O[C@H]3COP(=O)(O)O[C@@H]3[C@H]2O)c(=O)[nH]1 | u | 7.3e-08 | i | i | -0.3%
Oc1ccc2ccccc2c1CN1CCN(c2ccccc2F)CC1 | -2% | x | x | x | 3.0%
CN(C)c1ccc(C(c2nnnn2C2CCCCC2)N2CCN(C(=O)c3ccco3)CC2)cc1 (stereo not given) | -2% | 5.2e-09 | i | i | 0.5%
CCOC(=O)C1CCN(S(=O)(=O)c2ccc3[nH]c(=O)oc3c2)CC1 | 12% | x | x | x | 1.3%
CCOC(=O)C1=C(C)NC(=O)CC1c1ccccc1 (stereo not given) | 1% | 4.6e-08 | i | i | -0.7%
CN(C(=O)COc1cccc(Br)c1)C1CCS(=O)(=O)C1 (stereo not given) | 0%[11.4 µM] | 2.1e-08 | i | i | 1.1%
Cc1ccc2nc(NC3=NCN(C4CCCCC4)CN3)nc(C)c2c1 | 22% | 2.1e-09 | i | i | -0.5%
CCCCOc1ncnc2c1[nH]c1ccccc12 | u | 1.1e-08 | i | i | 0.9%
O=C(Nc1ccc2c(c1)OCCO2)C1CCN(S(=O)(=O)c2ccc(Br)s2)CC1 | -1% | 2.8e-08 | i | i | 1.1%
Cc1nn(C)cc1NC(=O)CCSc1nc(-c2ccco2)cc(C(F)(F)F)n1 | -1% | 9.8e-09 | i | i | -0.2%
Cc1cccc(C)c1OCc1nnc2c3cnn(C)c3ncn12 | 9% | 1e-09 | i | i | -0.4%
COc1cccc(NC2SC(=O)N(c3ccccc3)C2=O)c1 (stereo not given) | 2% | x | x | x | -2.5%
c1ccc2c(c1)CCN(Cc1nnnn1Cc1ccc3c(c1)OCO3)C2 | u | 8.7e-09 | i | i | -1.6%
Cn1c(SCC(=O)OC2CCCCC2)nnc1-c1ccc2c(c1)OCO2 | u | 1e-09 | i | i | -1.5%
Cc1cc(NC(=O)CCC(=O)N(c2ccccc2)C(C(=O)NC2CCCC2)c2ccncc2)no1 (stereo not given) | 6% | 2.9e-09 | i | i | 2.2%
CCOc1ccccc1NC(=O)CSc1nnc(-c2ccccc2Cl)n1Cc1ccco1 | u | 7e-09 | i | i | -0.5%
COc1ccc(OC)c(NC(=O)CSc2nc(C)cs2)c1 | 9% | 4e-08 | i | i | 0.0%
O=C1N2CCCc3cccc(c32)C12Nc1ccccc1S2 (stereo not given) | -6% | 5.9e-09 | i | i | 5.1%
Cc1cc(C)cc(NC(=O)N2CCC(c3nc4ccccc4o3)CC2)c1 | -5% | 3.5e-08 | i | i | -1.5%
COc1ccccc1Oc1ccc(S(=O)(=O)NCc2ccccn2)cc1 | u | 4.1e-09 | i | i | -2.9%
CCOc1cc(C2Nc3ccccc3C(=O)N2c2ccccc2)ccc1O (stereo not given) | x | 4.7e-09 | i | i | 4.9%

Part of the list above, with two lines to a compound:
Below each compound: TSHR agonist, A647 fluor, Resorufin autofl, A488 fluor, AID923
> Cc1cc2c(nc1C)CCCCN2C[C@H](O)CN1CCCc2nc(-c3ccc(Br)cc3)ccc21
→ -8%[11.4 µM], x, x, x, 1.6%[11.5 µM]
> c1ccc(-c2c3ccccc3nc3[nH]c4ccccc4c23)cc1
→ u, x, x, x, 2.9%

Some of the compounds tested; count on the stated rates, not on these rows.
